# FGF22 binding: binders of human FGF22 protein, primary screen, FGF22 synaptogenesis inhibitor project, biophysical, thermal shift, single point; recombinant FGF22 thermal shift, SYPRO orange fluorescence; percent of sucrose octasulfate shift, DMSO zero; calls only at 9.99 µM; hit rate 1.5% among 340,000;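 active = melting point raised past a set limit in the mean and every replicate; inconclusive = no clear call; three in four hits are not shown here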
# Target sequence (Q9HCT0 whole entry, looked up): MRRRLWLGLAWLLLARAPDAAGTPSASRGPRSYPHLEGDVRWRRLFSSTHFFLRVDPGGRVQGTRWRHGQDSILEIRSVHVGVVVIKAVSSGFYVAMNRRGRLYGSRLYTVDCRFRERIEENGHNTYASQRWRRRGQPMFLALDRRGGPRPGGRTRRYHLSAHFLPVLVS
# ALR H2O2 inh: inhibitors of human ALR sulfhydryl oxidase, primary screen, biochemical, H2O2 detection, HRP-luminol luminescence, single point. FAD-linked sulfhydryl oxidase ALR (Homo sapiens), P55789. AID 485317, 2010. hit rate 3.8% among 290,000. inhibition, % (concentration not given with the values). purified ALR, DTT oxidation;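 active = mean and each replicate at 75% or more; inconclusive = only one of the two met; inactive = neither met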;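 also: stock transfer was 7.5 nL into about 7.5 µL; 0% = neutral wells and 100% = wells with inactivated enzyme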
# Target sequence (P55789 whole entry, looked up): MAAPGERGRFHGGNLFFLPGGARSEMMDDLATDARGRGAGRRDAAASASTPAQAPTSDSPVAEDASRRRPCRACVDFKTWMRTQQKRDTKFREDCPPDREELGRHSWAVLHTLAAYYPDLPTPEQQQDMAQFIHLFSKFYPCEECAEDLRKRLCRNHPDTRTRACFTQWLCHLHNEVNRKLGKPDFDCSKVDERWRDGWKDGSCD
# MLL AF4-AF9 inh: inhibitors of AF4 peptide binding to AF9, primary screen, biochemical, AlphaScreen, biotin-AF4 peptide, FLAG-AF9, single point. Protein AF-9 (Homo sapiens), P42568. inhibition, % at 10 µM. hit rate 0.47% among 350,000;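 active = every replicate reaching a set inhibition limit, whatever the replicate mean, cut at about 25% in these data; inconclusive = mean inhibition reaches that limit but some replicates miss it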;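 also: 0% = plate neutral control median and 100% = total signal loss; the record names both 10 and 1 µM as test concentration; the first replicate is given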
# Target sequence (P42568 whole entry, looked up): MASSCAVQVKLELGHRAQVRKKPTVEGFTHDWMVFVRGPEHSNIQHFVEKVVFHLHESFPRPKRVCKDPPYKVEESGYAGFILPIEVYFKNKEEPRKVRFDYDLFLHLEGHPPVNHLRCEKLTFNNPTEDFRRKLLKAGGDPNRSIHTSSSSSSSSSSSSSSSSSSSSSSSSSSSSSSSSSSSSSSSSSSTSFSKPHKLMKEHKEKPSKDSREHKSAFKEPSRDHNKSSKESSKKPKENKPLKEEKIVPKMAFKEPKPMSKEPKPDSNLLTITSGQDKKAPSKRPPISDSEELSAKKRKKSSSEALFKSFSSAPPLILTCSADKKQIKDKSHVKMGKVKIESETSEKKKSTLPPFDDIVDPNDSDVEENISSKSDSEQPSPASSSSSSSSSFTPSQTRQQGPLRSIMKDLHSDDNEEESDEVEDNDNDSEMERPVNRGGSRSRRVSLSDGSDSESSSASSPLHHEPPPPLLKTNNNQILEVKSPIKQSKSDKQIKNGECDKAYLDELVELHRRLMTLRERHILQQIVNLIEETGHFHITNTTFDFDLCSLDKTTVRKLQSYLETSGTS
# Vif A3G: inhibitors of Vif binding to APOBEC3G peptide, primary screen, biochemical, TR-FRET, GST-Vif 1-94, biotin-A3G peptide, dose response retest (AID 1117319); Virion infectivity factor (Human immunodeficiency virus type 1 group M subtype B (isolate …; TR-FRET GST-Vif / biotin-A3G peptide binding; higher % means a stronger effect; test concentration not given here; strong numbers were not always called active; one-dose inhibition, %; IC50 in µM for titrated hits; hit rate 0.57% among 260,000;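 active = above the screen mean plus three standard deviations and confirmed in dose response; inconclusive = results disagree or hit not tested in dose response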;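 also: Vif residues 1-94 fused to GST binding biotinylated APOBEC3G peptide 110-148; 0% = full assay without inhibitor and 100% = GST in place of GST-Vif; retest series ran down from 100 µM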
# rRNA inh HTS: reduced GFP signal of wild-type E. coli, primary screen, bacterial rRNA inhibitor project, GFP/RFP fluorescence, OD600, single point; E. coli WT GFP vs humanized-ribosome RFP mutants, 24 h; hits give low values; DMSO median 0, no signal -100; GFP signal change (wild-type ribosome), % (concentration not given with the values); hit rate 1.6% among 350,000;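 active = significant combined selectivity score with lowered wild-type GFP, culture density cut under 30%, mutant RFP and density less affected; inactive = any of these conditions unmet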; also: one replicate is shown; some compounds called inactive have numbers as strong as hits
# Ecoli growth: E. coli growth inhibition, primary screen, OD600; Escherichia coli growth, 23 h; hits give low values; OD600 absorbance (concentration not given with the values); hit rate 0.21% among 330,000; AID 1053175, 2014;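 active = OD600 absorbance below the run mean of sample wells minus 3.6 SD, in any replicate, cut at about 0.56 in these data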;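 also: stock transfer was 300 nL into about 60 µL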
# HNF4A DNA FP: change in binding of human HNF4A to DNA, primary screen, biochemical, fluorescence polarization, FITC-DNA. 1 h. activity change, % at 10 µM. Hepatocyte nuclear factor 4-alpha (Homo sapiens), P41235. hit rate 0.3% among 360,000; in the data active = activity change above about 30%, passing the limit was not always enough;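 also: controls were the assay level and a saturating level of protein; the project sought stronger binding though the title names inhibitors; some compounds called inactive have numbers as strong as hits; positive values seem to mean higher polarization but the record does not say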
# rRNA inh HTS OD600: recorded beside rRNA inh HTS, whose call it bears; OD600 change, %; measured here: OD600 growth;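 optical density of the mix in the first replicate; 0 = DMSO median and -100 = no signal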
# rRNA inh HTS RFP: also measured in rRNA inh HTS; calls as there; RFP signal change, %; measured here: RFP humanized mutant strains;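 first replicate; 0 = DMSO median and -100 = no signal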
# * marks the source's active call; other numbers are inactive results; i = inactive; ? = inconclusive; . = not tested or not shown. Only part of the results is shown; the hit share may differ from the screen's.
SMILES,FGF22 binding,ALR H2O2 inh,MLL AF4-AF9 inh,Vif A3G,rRNA inh HTS,rRNA inh HTS OD600,rRNA inh HTS RFP,Ecoli growth,HNF4A DNA FP
C[C@@H]1CN([C@@H](C)CO)C(=O)c2cccc(NC(=O)Nc3cccc4ccccc34)c2O[C@H]1CN(C)CC1CC1,i,.,11,.,-5,-6,1.0,.,.
O=C(CCc1ccccc1)NNC(=O)Cc1ccccc1,i,-7,-4.5,.,3,8,-0.4,0.69,-4.5
O=C(COC(=O)c1ccc(Br)c(S(=O)(=O)N2CCOCC2)c1)NCCc1ccccc1,i,.,-2.3,2%,.,.,.,0.67,0.9
Cc1ccc(-c2n[nH]c3c2C(c2cccc(O)c2)N(c2ccc(C(=O)O)cc2)C3=O)cc1 (centres undefined),i,-3,-22,5%,-7,-5,2.0,0.69,3.1
CC1CCCCN1C(=O)CCC(=O)Nc1nnc(C(F)(F)F)s1 (centres undefined),i,.,-2.6,.,5,9,5.8,0.71,-1.7
CCOC(=O)[C@]12CCCC=C1N(CCC1=CCCCC1)C(=O)[C@H](CC(=O)NCC1CCCCC1)C2,i,.,-5.5,.,3,5,4.2,.,-3.5
O=C1CC(c2ccccc2)CC(O)=C1C=NCc1ccc(Cl)c(Cl)c1 (centres undefined),.,-4,.,?,.,.,.,0.74,-2.7
C[C@@H]1CCCCO[C@H](CN(C)C(=O)CCC(F)(F)F)[C@@H](C)CN([C@H](C)CO)C(=O)c2cc(NC(=O)c3ccccc3)ccc2O1,i,.,0.2,.,5,4,-0.9,.,.
Cc1ccccc1-c1ccc([C@H]2[C@H]3CN(C(=O)NC4CCCC4)CCCCN3[C@H]2CO)cc1,i,.,1.6,.,-57,-70,-3.2,.,.
COc1cc(C)c(NC(=S)Nc2ccc(C)c(Cl)c2)cc1OC,.,.,.,12%,.,.,.,0.7,-2.7
Cc1ccc(-c2nnc(C)c(N3CCCC3)n2)cc1,i,1,-3.5,-11%,30,24,1.6,0.67,3.6
Cc1nn(-c2ccccc2)c(C)c1NC(=O)CCl,.,-1,.,?,.,.,.,0.71,3.0
O=C(O)c1cccc2c1C(=O)c1ccc(-c3ccc(F)cc3OCc3ccccc3)cc1S2(=O)=O,.,98*,.,.,.,.,.,0.68,4.0
CCOc1ccc(CNC(=O)C2CC(=O)N(C3CCCC3)C2)cc1OC (centres undefined),.,-3,.,-5%,.,.,.,0.71,-1.0
CC(C)c1ccc(/C=N\NC(=O)c2ccc(Cn3cccn3)o2)cc1,i,11,1.9,20%,-1,3,-3.2,.,3.7
O=C(Nc1cccc(Cl)c1)N[C@H]1CC[C@@H](CCNC(=O)C2CCCCC2)O[C@H]1CO,i,.,-4.2,.,-6,-12,2.5,.,.
CCOC(=O)c1cc(-c2ccccc2)nc2ccc(C)cc12,i,9,5.6,.,3,-10,-2.6,0.67,1.6
CN(Cc1ccccc1)C(=O)c1ncn(Cc2ccccc2)c1C(=O)N(C)Cc1ccccc1,i,5,-0.4,.,-18,-16,6.7,0.68,-3.9
C[C@@H]1CN([C@@H](C)CO)C(=O)c2cc(NC(=O)Cn3cnnn3)ccc2O[C@@H]1CN(C)S(=O)(=O)c1cn(C)cn1,i,.,-4.5,.,2,4,-1.1,.,.
COC(=O)C1=C(C)N(c2ccc(C)c(C)c2)/C(=C/c2ccc(O)cc2)C1=O,i,54,0.9,0%,0,-2,1.4,0.66,-1.3

# Overlap with the part before: 3 entries, followed by the next part.
SMILES,FGF22 binding,ALR H2O2 inh,MLL AF4-AF9 inh,Vif A3G,rRNA inh HTS,rRNA inh HTS OD600,rRNA inh HTS RFP,Ecoli growth,HNF4A DNA FP
CN(Cc1ccccc1)C(=O)c1ncn(Cc2ccccc2)c1C(=O)N(C)Cc1ccccc1,i,5,-0.4,.,-18,-16,6.7,0.68,-3.9
C[C@@H]1CN([C@@H](C)CO)C(=O)c2cc(NC(=O)Cn3cnnn3)ccc2O[C@@H]1CN(C)S(=O)(=O)c1cn(C)cn1,i,.,-4.5,.,2,4,-1.1,.,.
COC(=O)C1=C(C)N(c2ccc(C)c(C)c2)/C(=C/c2ccc(O)cc2)C1=O,i,54,0.9,0%,0,-2,1.4,0.66,-1.3
CC(=C1C(=O)c2ccccc2C1=O)N1CCN(CCN=CC2=C(O)CC(C)(C)CC2=O)CC1,i,-8,0.5,23%,7,7,-1.7,0.63,-0.9
O=C(c1ccc([N+](=O)[O-])cc1)N1CCN(c2ncccn2)CC1,i,-10,-2.2,.,3,-9,-1.4,0.7,0.9
CC(NC(=O)CCC(=O)NC(C)c1ccccc1)c1ccccc1 (centres undefined),i,-2,-2.5,.,9,9,1.3,0.71,6.6
Cc1ccccc1NC(=O)Cc1nnc(SCC(=O)N2CCOCC2)n1C,i,-5,-1.4,.,14,15,2.1,0.73,2.5
COc1ccc(-c2nnc(CSc3nc4ccccc4c(=O)n3C)o2)cc1OC,i,-3,-73,9%,5,5,-1.9,0.7,3.2
COc1ccc(N(C)C(=O)c2cc3c(s2)-c2c(C)cccc2OC3)c(OC)c1,i,.,8.9,32%,-7,-11,4.5,0.7,1.2
O=C(c1ccccc1)N1CCN(c2ncnc3c2cnn3-c2ccccc2)CC1,.,-3,.,?,.,.,.,0.72,-1.3
C[C@H]1CN([C@@H](C)CO)S(=O)(=O)c2ccc(C3=CCCCC3)cc2O[C@H]1CN(C)Cc1ccncc1,i,.,14,.,-42,-57,32,.,.
CCOC(=O)c1c(S(=O)(=O)NCC(C)c2ccccc2)c(C)n(C)c1C (centres undefined),i,2,4.2,.,-7,-17,3.5,0.71,8.7
COc1ccc(-n2c(SCC(=O)Nc3nccs3)nc3c(c2=O)SCC3)cc1,i,.,-2.5,-5%,5,10,3.3,0.73,1.7
C/C(Cc1ccccc1)=N\NC(=O)CNC(=O)c1ccccc1Cl,i,-3,-4.2,.,11,12,-0.8,.,1.5
CCCNC(=O)Nc1ccc2c(c1)C(=O)N(C)C[C@H](OC)[C@H](C)CN(Cc1cncnc1)[C@@H](C)CO2,i,.,-1.3,.,0,-3,1.7,.,.
CCOc1ccc(CCNC(=O)CCn2cccc2)cc1OCC,.,8,.,4%,.,.,.,0.73,1.6
N=c1c(S(=O)(=O)c2ccc(Br)cc2)cc2c(=O)n3ccccc3nc2n1Cc1ccccc1,i,-1,0.0,-33%,4,12,-1.8,0.65,-11
O=C(O)c1ccc2c(c1)C(=O)N(c1nccs1)C2=O,i,6,3.6,.,3,7,-6.6,0.69,1.2
CC(=O)Nc1ccccc1/C=C/c1ccc2c(C)cc(C)c(O)c2n1,i,27,1.2,.,14,1,-1.7,0.69,-4.5
CC(C)NS(=O)(=O)c1ccc(CCC(=O)Nc2ccc3c(c2)OCCO3)cc1,i,.,-2.3,.,.,.,.,0.72,-4.4
N#Cc1ccccc1N=Cc1ccc(Br)cc1,.,-10,.,-1%,.,.,.,0.72,-0.7
C[C@@H]1CCCCO[C@@H](CN(C)C(=O)Nc2ccc(F)cc2)[C@H](C)CN([C@H](C)CO)C(=O)c2cc(NS(=O)(=O)c3ccccc3)ccc2O1,i,.,6.2,.,-4,0,-1.1,.,.
C[C@@H]1CN([C@@H](C)CO)C(=O)c2cc(NC(=O)Cn3cnnn3)ccc2O[C@H]1CN(C)S(C)(=O)=O,i,.,-0.9,.,5,18,1.1,.,.

# Part of the list above with just rRNA inh HTS.
mol | rRNA inh HTS
CCOC(=O)c1c(S(=O)(=O)NCC(C)c2ccccc2)c(C)n(C)c1C (centres undefined) | -7
COc1ccc(-n2c(SCC(=O)Nc3nccs3)nc3c(c2=O)SCC3)cc1 | 5
C/C(Cc1ccccc1)=N\NC(=O)CNC(=O)c1ccccc1Cl | 11

# Further entries
SMILES,FGF22 binding,ALR H2O2 inh,MLL AF4-AF9 inh,Vif A3G,rRNA inh HTS,rRNA inh HTS OD600,rRNA inh HTS RFP,Ecoli growth,HNF4A DNA FP
CCn1nc(C)c(NC(=O)/C=C/c2ccc(OC)c(COc3ccc(Cl)cc3Br)c2)c1C,.,-13,.,10%,.,.,.,0.63,5.1
N#Cc1ccccc1S(=O)(=O)N1CCN(C(=O)[C@@H]2CCCN2C(=O)c2cccs2)CC1,i,-1,0.5,3%,.,.,.,0.7,-0.2
CCOC(=O)/C(=C/c1ccc(OC)cc1)NC(=O)c1ccco1,.,.,.,-3%,.,.,.,0.69,2.1
COC(=O)c1cc(C(=O)c2ccccc2)n2c(=O)/c(=C\N(C)C)sc12,i,-11,3.2,-2%,-2,11,19,.,.
CC(=O)Nc1ccc(S(=O)(=O)NC2(C(F)(F)F)NC(=O)N(c3ccc(Cl)cc3)C2=O)cc1 (centres undefined),.,-8,.,5%,.,.,.,0.7,-0.5
CNc1nc(-c2c(C)n(C)c3ccc(OC)cc23)cs1,i,.,5.2,8%,6,8,18,0.68,0.4
O=S(=O)(c1cccs1)N1CCN(C/C=C/c2ccccc2)CC1,.,.,.,?,.,.,.,0.71,3.3
O=C(C[C@@H]1C[C@@H]2c3cc(NC(=O)c4ccc5c(c4)OCO5)ccc3O[C@@H]2[C@@H](CO)O1)NCC1CC1,i,.,-0.7,.,-1,6,0.0,.,.
O=C(Nn1cnnc1)c1csc2ccccc12,.,55,.,3%,.,.,.,0.7,6.0
CN1CCN(CC(=O)NC23CC4CC(CC(C4)C2)C3)CC1,i,-1,1.3,.,8,7,-1.9,0.67,2.8
Cn1c(CNC(=O)CCNC(=O)c2cccc(F)c2)cc(=O)n(C)c1=O,i,-3,0.2,.,2,14,-0.3,0.67,1.6
Cc1cc(=O)n(CC(=O)Nc2cc(Cl)ccc2C)c(C(C)C)n1,i,.,-8.7,-1%,6,-6,-3.4,0.66,-2.5
C=CCNC(=S)/N=c1/scc(C)n1C,i,14,-1.9,-9%,-2,7,0.4,.,4.5
c1ccc2c(c1)nc1n2CCN1CCN1CCCC1,i,-2,-1.6,1%,7,13,1.3,0.66,-3.4
O=[N+]([O-])c1cccc(-c2nn(-c3ccccc3)cc2CO)c1,i,6,3.8,.,2,-18,-3.2,0.65,0.8
Cc1noc(/C=C/c2ccccn2)c1[N+](=O)[O-],i,-4,-3.1,.,2,15,1.8,0.68,1.8
COc1ccc(Br)cc1S(=O)(=O)N1CCOCC1,.,-3,.,3%,.,.,.,0.65,-1.6
Cc1cc(Br)ccc1OCC(=O)NC1CCCC1,i,0,-0.2,.,-5,-20,-3.9,0.71,3.0
CCC(C)c1ccc(NC(=S)Nc2ccc(OC)c(OC)c2)cc1 (centres undefined),.,-10,.,10%,.,.,.,0.7,0.1
CCOc1ccc(OCC)c(S(=O)(=O)N2CCCCC2C)c1 (centres undefined),.,-5,.,-1%,.,.,.,0.63,-1.1
O=S(=O)(NCC[C@@H]1CC[C@H](NS(=O)(=O)c2cccc(F)c2)[C@H](CO)O1)c1cccc(F)c1,i,.,-1.8,.,-2,-2,-2.8,.,.
CCCCc1ccc(NC(=S)Nc2cccnc2)cc1,i,1,-1.7,19%,.,.,.,0.65,2.5
CC(C)CCNC(=O)c1cc(-c2ccco2)nc2ccccc12,.,13,.,-1%,.,.,.,0.71,-1.4

# Screening data (PubChem BioAssay)
